Screening data (PubChem)
Vaccinia mCherry: inhibitors of vaccinia virus infection (mCherry reporter signal); Potency, µM (highest dose often 36.5 µM), inactives show at the top dose activity change, negative = inhibition, usual class: inhibitors; Vaccinia virus mCherry reporter infection, fluorescence; about a quarter of the inactives have no number; AID 720579; 310,000 compounds, 0.63% hits; active = well fitted inhibition curve with a large enough effect; inconclusive = small, poorly fitted or top-dose-only effect; inactive = no such curve, though single readings can be large or run the other way; tested in A549 cells; also: nearly all actives have a fitted effect of over 35% in size; inactives centre near -10
Vaccinia Venus: inhibitors of vaccinia virus (Venus reporter). Vaccinia virus Venus reporter expression, fluorescence. Potency, µM (series often up to 36.5 µM), for the others: at the highest dose activity change, negative = inhibition, hits mostly inhibitors. 330,000 compounds, 0.46% hits. AID 720580; active means well fitted inhibition curve with a large enough effect; inconclusive means small, poorly fitted or top-dose-only effect; inactive means no such curve, though single readings can be large or run the other way; tested in A549 cells; also: nearly all actives have a fitted effect of over 30% in size; inactives centre near -10
An asterisk follows results filed as active; i = inactive; ? = inconclusive; . = no result given; & = joins results of further samples; [ ] = remark or other dose. % is scaled to controls: 0 for no effect and ±100 for the full control effect; potency is read from the fitted curve at half-maximal effect.

| Molecule | Vaccinia mCherry | Vaccinia Venus |
| --- | --- | --- |
| COc1cccc2c1ncc1c(-c3ccc(C)cc3)nn(-c3cccc([N+](=O)[O-])c3)c12 | -23.0% | -26.7% |
| COC(=O)c1ccc2c(=O)n(-c3ccccc3F)c(=S)[nH]c2c1 | -23.8% | -9.4% |
| CCOc1cccc(NC(=O)C2CC(=O)N(C)C(=Nc3cccc(F)c3)S2)c1 (stereo not drawn) | -17.5% | -21.5% |
| O=C(O)c1cc2n(n1)C(C(F)(F)F)CC(c1ccco1)N2 (stereo not drawn) | -10.4% | -10.0% |
| CCc1ccc(S(=O)(=O)n2ccnc2)cc1 | 10.6% | 3.0% |
| COc1cccc(-n2cc(C(=O)NCc3ccc(C)cc3)c3ccccc3c2=O)c1 | -11.8% | -2.2% |
| CCc1ccc(NC(=O)CN2C(C(=O)OC)=C(c3ccccc3)c3ccccc3S2(=O)=O)cc1 | -18.3% | -16.0% |
| C=CCO/N=C/C1=C(O)C(C(=O)OC)C(C)(C)CC1=O (stereo not drawn) | i | -2.7% |
| Cc1ccc(C(=O)C2=C(O)C(=O)N(Cc3ccco3)C2c2cccc(Br)c2)o1 (stereo not drawn) | -11.5% | 0.3% |
| N#CCC(=O)Nc1ccc(C(=O)OCC(=O)Nc2ccccc2-c2ccccc2)cc1 | -9.7% | 1.4% |
| CN(C)c1cccc2c(S(=O)(=O)N3CCOCC3)cccc12 | i | -24.9% |
| Cc1ccccc1OCc1ccc(-c2nc(C#N)c(N3CCN(C)CC3)o2)o1 | -14.2% | -1.2% |

| Molecule | Vaccinia mCherry | Vaccinia Venus |
| --- | --- | --- |
| CCc1cccc(NC(=O)CN(C)S(=O)(=O)c2ccc3c(c2)n(C)c(=O)c(=O)n3C)c1 | -8.1% | -8.5% |
| Fc1ccccc1N1CCN(c2ncnc3c2nc2n3CCCC2)CC1 | -12.6% | -29.4% |
| CC(C)N(C(=O)CSc1nnc(Cc2csc(Nc3ccccc3)n2)o1)C(C)C | ? | -25.8% |
| COc1ccc2cc(-c3cccnc3)ncc2c1 | i | -26.4% |
| COC(=O)c1c(NC(=O)COC(=O)c2ccccn2)sc(C)c1C | -19.1% | -13.6% |
| O=C(CCN1C(=O)C2C3CC(C(Br)C3Br)C2C1=O)OCC(=O)c1cccc([N+](=O)[O-])c1 (stereo not drawn) | 3.4% | -2.1% |
| Clc1ccccc1CN1CCN(c2ccccc2)CC1 | i | -8.1% |
| O=c1/c(=C/c2ccccn2)sc2nc3ccccc3n12 | -9.2% | 3.9% |
| CCOc1nc(-c2ccccc2)ccc1-c1noc(COc2ccccc2)n1 | . | -5.1% |
| COc1ccc(C)cc1S(=O)(=O)Nc1cccc(Cl)c1 | . | -19.2% |
| Cc1ccc([C@H]2N[C@]3(CCCN(Cc4ccc(Cl)cc4)C3=O)[C@H]3C(=O)N(Cc4ccccc4)C(=O)[C@@H]23)cc1 | ? | ? |
| COc1ccc(NC(=O)CNC(=O)C23CC4CC(CC(C4)C2)C3)c(OC)c1 | -7.2% | -8.0% |

Of the compounds above, 3 contain a Cl atom:
| Molecule | Vaccinia mCherry | Vaccinia Venus |
| --- | --- | --- |
| Clc1ccccc1CN1CCN(c2ccccc2)CC1 | i | -8.1% |
| COc1ccc(C)cc1S(=O)(=O)Nc1cccc(Cl)c1 | . | -19.2% |
| Cc1ccc([C@H]2N[C@]3(CCCN(Cc4ccc(Cl)cc4)C3=O)[C@H]3C(=O)N(Cc4ccccc4)C(=O)[C@@H]23)cc1 | ? | ? |

(more compounds)
| Molecule | Vaccinia mCherry | Vaccinia Venus |
| --- | --- | --- |
| COc1cc2c(cc1OC)C(COc1ccc3c(C)cc(=O)oc3c1)N(C(=O)c1cccc(C)c1)CC2 (stereo not drawn) | ? | ? |
| FC(F)(F)c1cc(Cl)c2nc(-c3ccco3)c(Cc3ccccc3C(F)(F)F)n2c1 | 5.9% | -3.7% |
| Cn1c(=O)[nH]c2sc3c(c2c1=O)CC(C)(C)OC3 | . | ? |
| O=C(NCc1cccnc1)c1c[nH]c2cc3c(cc2c1=O)OCCO3 | ? | ? |
| COc1ccc(Oc2nnc(-c3ccc(C)cc3)c3ccccc23)cc1 | -13.0% | -12.2% |
| CCC(c1nnnn1C1CCCC1)N1CCN(c2ccccc2F)CC1 (stereo not drawn) | . | -6.2% |
| CCOc1ccc(NC(=O)C(=O)NCCN2CCN(S(=O)(=O)c3ccc(C)cc3)CC2)cc1 | 2.0% | -0.4% |
| CC(=O)Nc1ccc(C(=O)NNC(=O)c2csc(N3CCOCC3)n2)cc1 | -9.9% | -15.5% |
| CCc1ccc(CNC(=O)CCCC(=O)n2nc(C)c3ccccc32)cc1 | i | -16.6% |
| O=C(CCc1nc2ccccc2c(=O)[nH]1)NCC(=O)Nc1ccc(F)c(F)c1 | i | -7.9% |
| COc1cc(Cl)c(C)cc1NC(=O)COC(=O)/C=C/c1c(C)nn(C2CCS(=O)(=O)C2)c1Cl (stereo not drawn) | i[1.46 µM] | -22.8% |
| CCOc1ccc(CN2C(=O)c3ccccc3Sc3ccc(C(=O)NCc4ccco4)cc32)cc1 | -11.3% | -5.9% |

The closing 2 records of the section before are carried over, then new ones follow:
| Molecule | Vaccinia mCherry | Vaccinia Venus |
| --- | --- | --- |
| COc1cc(Cl)c(C)cc1NC(=O)COC(=O)/C=C/c1c(C)nn(C2CCS(=O)(=O)C2)c1Cl (stereo not drawn) | i[1.46 µM] | -22.8% |
| CCOc1ccc(CN2C(=O)c3ccccc3Sc3ccc(C(=O)NCc4ccco4)cc32)cc1 | -11.3% | -5.9% |
| CC(C)C[C@@H](COc1ccccc1)N1CCN(CCc2ccccc2)CCC1=O | -2.9% | -7.1%&-9.1% |
| O=S(=O)(c1cc(Cl)cc(Cl)c1)N1CCC2CC1c1cc(Cl)ccc12 (stereo not drawn) | -23.5% | 11.1% |
| Cc1cc(/C=C2\C(=N)N3N=C(S(C)(=O)=O)SC3=NC2=O)c(C)n1Cc1ccccc1 | i | 12.4% |
| Cc1cccc(NC(=O)COC(=O)c2cccs2)c1C | -3.4% | -0.9% |
| COc1ccc2nc(C)cc(N/N=C/c3ccccc3)c2c1 | 14.1µM* | ? |
| Cc1nc(SCC(=O)Nc2cc(Cl)ccc2[N+](=O)[O-])nc(C)c1C | i | -17.5% |
| COc1ccc2[nH]cc(CCNC(=O)Cn3cc(C)c(=O)[nH]c3=O)c2c1 | -12.2% | -11.2% |
| O=C1NC[C@H](CCCCN2C[C@H](Cc3ccc(O)cc3)N(CCC3CCCCC3)C(=O)C2=O)N(CC2CCCCC2)C1=O | 11.3% | 6.6% |
| COC(=O)c1ccc(COC(=O)CSCC(=O)Nc2ccc(C)cc2C)cc1 | -15.6% | -10.5% |
| CC(=O)Nc1nc(Cn2nnc(-c3ccc4c(c3)OCO4)n2)nc(N(C)C)n1 | -3.4% | -0.3% |
| COc1cc2c(cc1OC)C(C)N(C(=S)NC(=O)c1ccccc1)CC2 (stereo not drawn) | -23.1% | -12.1% |
| CCOC(=O)N1CCN(C(=O)CSc2ccc3nnc(-c4cccnc4)n3n2)CC1 | i | -15.5% |

Each structure is followed by: Vaccinia mCherry	Vaccinia Venus
COc1ccc(/C=N/NC(=O)Cn2cc(C(F)(F)F)ccc2=O)cc1
    -9.7%	-3.6%
O=C(CN1CCN(S(=O)(=O)c2ccccc2)CC1)Nc1ccccc1Cl
    i	-22.2%
CN(C)CCN1CCN(C2CN(C3CCCC3)S(=O)(=O)C2)CC1 (stereo not drawn)
    i	-3.0%
CCOC(=O)CC1COCCN1C(=O)c1ccc2oc(Cc3ccccc3)nc2c1 (stereo not drawn)
    i	-13.7%
CSc1nnc(-c2cc(Br)ccc2N=Cc2c(C)[nH]n(-c3ccccc3)c2=O)c(=O)[nH]1
    i	-5.7%
Nc1cc(N2CCCC2)ccc1[N+](=O)[O-]
    -13.5%	-18.4%
O=C(Cn1cc(CCO)nn1)N1CCNCC1
    i	-3.4%
O=C(Nc1ccc(Oc2ccccc2)nc1)C1CCCCN1Cc1cccc(OCCO)c1 (stereo not drawn)
    -26.7%	-14.5%
N#Cc1ccc(-c2ccc(OCC(=O)NCCc3ccccc3)cc2)cc1
    i	-20.4%
Cc1ccc(C(=O)/C=C\NCc2ccccc2)cc1
    i	-17.5%
c1ccc2[nH]c(-c3ccnc4ccccc34)nc2c1
    i	-13.5%
O=c1cccc2n1CC1CC2CN(S(=O)(=O)c2ccc(F)cc2)C1 (stereo not drawn)
    -6.3%	-1.3%
Cc1c(C(=O)N2CCC3(CC2)OCCO3)sc2ncnc(N3CCN(c4ccccn4)CC3)c12
    i	0.2%
COc1ccccc1CNC(=O)COc1cccnc1[N+](=O)[O-]
    -4.6%	-10.5%
Cc1cccc(C)c1C(O)c1ncc(-c2cccc(F)c2)[nH]1 (stereo not drawn)
    9.0%	-1.7%
CCc1nc(C)c(C(=O)N2CCCC(C(=O)Nc3cccc(-c4cccc(C)c4)c3)C2)o1 (stereo not drawn)
    -26.4%	-18.0%
Cc1ccc2c(c1)cc1c(=O)n(CC(=O)NC(C)CCc3ccccc3)nc(C)n12 (stereo not drawn)
    -13.9%	-6.8%
CCn1ncc(CN2CCN(C(=O)Nc3ccccc3C(=O)OC)CC2)c1C
    i	-22.5%
CCCSc1nsc(SCCC)c1C#N
    .	-6.6%
CCC(CO)NCc1ccc(-c2ccccc2)cc1 (stereo not drawn)
    ?	-26.1%

Each structure is followed by: Vaccinia mCherry	Vaccinia Venus
Cn1c(SCC(=O)NNC(=O)c2ccccc2)nnc1C1CC1
    -5.1%	-6.5%
CCc1ccc(-c2csc3ncn(CC)c(=O)c23)cc1
    i	-21.3%
O=C(NCc1ccccc1)c1ccc2oc(=O)n(Cc3ccccc3)c2c1
    -2.7%	-1.3%
COc1ccccc1-c1cc(C(=O)N/N=C/c2ccc(C)o2)c2ccccc2n1
    -15.9%	-17.1%
CCOC(=O)c1sc(=NC(=O)COc2ccc(Cl)cc2)n(C)c1C
    1.7%	-1.8%
COc1ccc(-c2nc(N)nc(C(F)(F)F)c2-c2csc(C)n2)c(O)c1
    -23.8%	-17.9%
CCOC(=O)N1CCC(NC(=O)C(NS(=O)(=O)c2ccc3c(c2)CCN3C(C)=O)C(C)C)CC1 (stereo not drawn)
    -11.8%	-10.9%
CCOc1ccc(NC(=O)c2cccs2)c([N+](=O)[O-])c1
    -2.3%	3.6%
CC(=O)CC1c2ccccc2C=C(c2ccsc2)N1c1ccc(-c2cccs2)cc1 (stereo not drawn)
    9.7%	10.7%
CN(C)c1nc(-c2cccnc2)nc(-c2ccccc2)c1C#N
    -5.1%	-22.7%
CCOC(=O)c1c(C)[nH]c(C(=O)COC(=O)/C=C/c2ccc3c(c2)OCO3)c1C
    i	-2.4%
CC(OC(=O)CCc1nc2ccccc2c(=O)[nH]1)C(=O)Nc1cccc(C(F)(F)F)c1 (stereo not drawn)
    -13.8%	9.9%
Cn1nc(-c2ccccc2)c(CO)c1Oc1cccc(C(F)(F)F)c1
    -23.4%	-18.4%
COC(=O)c1cc(=O)c2c(C)nc(C(Cl)(Cl)Cl)nc2[nH]1
    -8.1%	-20.9%
OC1C[N+]2(CCCCC2)C1
    -8.5%	-0.8%
Cc1cccc(S(=O)(=O)c2cn(Cc3ccccc3)c3cc(N4CCC(C)CC4)c(F)cc3c2=O)c1
    -26.5%	-16.9%
COc1cc(=O)n2c(c1C(=O)N1CCc3ccccc3C1)CCN(Cc1ccc(CO)o1)CC2
    -12.4%	-11.4%
CCCCNC(=O)c1cc(-c2ccc3c(c2)OCO3)on1
    i	6.7%
CC1CCc2nc(NC(=O)Cc3cccs3)sc2C1 (stereo not drawn)
    .	-26.2%
Cc1ccc(CSCC(=O)N2CCCC2)cc1
    i	7.5%

Each structure is followed by: Vaccinia mCherry	Vaccinia Venus
CCOc1ccc(NC(=O)CCNC(=O)c2ccco2)cc1
    -3.9%	2.7%
COCc1cc(C)[nH]c(=O)c1C#N
    .	?
O=C(CSc1nnc2ccc(-c3ccccn3)nn12)NCCc1ccccc1
    -21.5%	-23.0%
O=C1c2cccc([N+](=O)[O-])c2C(=O)N1c1ccccc1
    i	-7.3%
Cc1cc(C(=O)Cn2cnc3ccc(Cl)cc3c2=O)c(C)n1C1CC1
    -5.9%	-5.7%
CC1=C(C(=O)N(C(C)C)C(C)C)CC(CC(=O)NC2CCCCC2)C(=O)N1Cc1ccc(F)cc1 (stereo not drawn)
    i	6.5%
CCc1nc2c(OCCOc3ccc(F)cc3)cccn2c1N(C)C(=O)c1ccco1
    1.4%	-19.0%
Cc1cccnc1NC(=O)c1sc2ccccc2c1Cl
    -4.6%	-19.9%
CCC1CN(CCNC(=O)c2ccsc2)Cc2cc(OC)ccc2O1 (stereo not drawn)
    -3.9%	6.7%
COc1ccc(N(C(=O)Cc2cccs2)C(C(=O)NC2CCCCC2)c2cccn2C)cc1OC (stereo not drawn)
    -12.6%	-6.6%
CC1Cc2ccccc2N1C(=O)C12CCC(C)(C(=O)C1)C2(C)C (stereo not drawn)
    -4.8%	-13.2%
CCCCSc1nnc(-c2c[nH]c3ccccc23)n1C
    -13.9%	-24.1%
Cc1ccc(NC(=O)COC(=O)COc2cccc3c2OC(C)(C)C3)cc1S(=O)(=O)N1CCOCC1
    -7.3%	-6.4%
Cc1ccccc1C1c2[nH]c3ccccc3c2C[C@H]2C(=O)N(c3ccccc3C(=O)NCCCN3CCOCC3)C(=O)N12 (stereo partly drawn)
    0.4%	-8.4%
CCOC(=O)[C@@H]1[C@H]2COc3ccc(Br)cc3[C@@H]2N2C(=O)N(c3ccc(OC)cc3)C(=O)[C@@]12C
    -1.2%	-16.8%
